CSC inhib = blocks cancer stem cells; inhibition, % at 7.5 µM; cancer stem cell-like cells viability, luminescence; actives 1.1% (n = 300,000);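 active = mean at 75% or more and at least half the replicates too; inconclusive = mean and replicates disagree; tested in HMLE shEcad cells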;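 also: 0% = median of negative and 100% = median of positive control wells; the first replicate is given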
PABP FP inh = PABP-poly(A) binding inhibition. P11940. PABP-poly(A) RNA binding, fluorescence polarization. inhibition, % at 35 µM. actives 1% (n = 290,000). AID 2014;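 active = 50% or more with normal probe brightness, or confirmed in later tests; inconclusive = above 50% with abnormal brightness, or retests that disagree; inactive = below 50% or failed in later tests; about a fifth of its hits are not listed in these tables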;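 also: calls also rest on retests at 20 µM and on dose response follow-up; controls were probe without protein and protein plus probe with vehicle; some compounds called inactive have numbers as strong as hits; many hits fall short of the cut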
eIF4H inh = inhibitors of RNA binding by human eIF4H. actives 0.94% (n = 290,000). eIF4H fluorescence polarization binding assay. inhibition, % at 35 µM;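 active = 50% or more with normal probe brightness, or confirmed in later tests; inconclusive = above 50% with abnormal brightness, or retests that disagree; inactive = below 50% or failed in later tests; about a fifth of its hits are not listed in these tables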;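 also: calls also rest on retests at 20 µM and on dose response follow-up; 0% = protein and probe with vehicle and 100% = probe without protein; strong numbers were not always called active; many hits fall short of the cut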
MT1-MMP act inh = inhibitors of human MT1-MMP activation; P50281; HT1080 RFP-PRO-GFP cells, GFP/RFP ratio fluorescence, overnight; percent of plate control window, DMSO zero; GFP/RFP ratio change, % at 20 µM; actives 0.061% (n = 360,000);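 active = GFP/RFP ratio change of at least 30% with cell ATP level not reduced by more than half and red fluorescence within 50% of control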; also: strong numbers were not always called active
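Material: RFP-PRO-GFP reporter HT1080 cells. Dosing: single-point 20 µM compound, 1% DMSO. Controls: DMSO and RFP-L50D-GFP cell wells. Timing: cells overnight before dosing, compound overnight, 37 °C, 5% CO2. Measure: GFP/RFP fluorescence ratio.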
Rce1 inh = yeast Ras-converting enzyme inhibition; Q03530; yeast membranes, quenched prenylated peptide cleavage fluorescence; calls only; actives 0.27% (n = 290,000);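 active = fall in fluorescence gain of 50% or more versus controls, with final raw signal at or below 3038400; inconclusive = same 50% fall but final raw signal above 3038400; inactive = fall in fluorescence gain under 50%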;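 also: plate controls were neutral control wells for no effect and wells lacking membranes for full effect; tested at 10 µM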
Target sequence (Q03530 whole entry, looked up): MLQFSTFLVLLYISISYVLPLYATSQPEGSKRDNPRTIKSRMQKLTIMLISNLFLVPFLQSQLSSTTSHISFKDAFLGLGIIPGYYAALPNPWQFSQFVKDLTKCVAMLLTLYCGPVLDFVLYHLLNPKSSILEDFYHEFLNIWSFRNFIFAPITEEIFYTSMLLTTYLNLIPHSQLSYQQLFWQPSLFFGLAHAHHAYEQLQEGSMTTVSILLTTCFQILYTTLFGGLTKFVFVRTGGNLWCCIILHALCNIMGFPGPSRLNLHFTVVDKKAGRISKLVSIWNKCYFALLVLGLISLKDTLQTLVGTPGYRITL
UUG fidelity = yeast start codon fidelity modulation. S. cerevisiae UUG-firefly luciferase reporter, luminescence/redox ratio. actives 0.13% (n = 350,000). activity score, % at 18.7 µM. AID 602363;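 active = replicate mean at a twofold rise or more, about +100% in these data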;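 also: firefly luciferase made from a UUG start codon reports start codon fidelity; reporter light over untreated wells divided by growth signal over untreated wells; some hits fall short of that in this replicate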
HIV Env fusion = HIV envelope-mediated fusion inhibition | HeLa-JRFL Env/CEM21 cell fusion, luciferase | inhibition, % at 12.3 µM | actives 1.1% (n = 360,000) | AID 651610;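 active = mean replicate inhibition score of at least 50 and every replicate individually at or above 50; inconclusive = only one of the two criteria met; inactive = mean below 50 and not all replicates reaching 50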;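 also: 0% = plate neutral controls and 100% = maraviroc near 300 nM; one replicate is shown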
eIF4H inh retest = second read-out of eIF4H inh, no call of its own (marks repeat the call); inhibition, %; compound at 20 µM; confirmation average;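 mean of two retest wells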
PABP FP inh retest = also measured in PABP FP inh; calls as there; inhibition, %; compound at 20 µM; confirmation repeats;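 mean of two retest wells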
MT1-MMP act inh RFP = second read-out of MT1-MMP act inh, no call of its own (marks repeat the call); RFP signal change, %; measured here: RFP expression control read;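 0 = vehicle wells; hits needed this value within 50% of zero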
* marks the source's active call; other numbers are inactive results; i = inactive; ? = inconclusive; · = not tested or not shown.

SMILES	CSC inhib	PABP FP inh	eIF4H inh	MT1-MMP act inh	MT1-MMP act inh RFP	Rce1 inh	UUG fidelity	HIV Env fusion	others
CCN1CCN(Cc2nnc(-c3ccccc3)o2)CC1	5	1	1	3	4	i	-36	-5
CN(C)C(C)(C)C#CCC(c1ccccc1)c1ccccc1	28	0	7	-10	-4	i	·	31
O=C(O)c1cc(-c2ccco2)nc2ccccc12	-6	60*	82*	-10	3	i	-23	12
O=C(CCCCCNC(=O)c1ccccc1)N/N=C/c1ccc(F)cc1	2	2	2	5	-4	i	8	7
CC(C)NCc1cc(Br)ccc1OCc1ccccc1	8	2	2	1	1	i	·	-12
O=C1CCC(C(=O)OCc2nnc(-c3ccc(Br)cc3)o2)=NN1	·	·	·	-4	-1	·	-15	-13
Cc1cccc(NC(=O)c2nc[nH]c2C(=O)NCC(=O)OCc2ccccc2)c1	0	5	4	1	4	i	-13	55*
CCc1cc(=O)oc2c3c(cc(OCC(=O)NCc4cccnc4)c12)OC(C)(C)CC3	73	1	-6	4	-4	i	-7	·
CCc1ccccc1N1CC(C(=O)Nc2cc(C)on2)CC1=O (stereo unspecified)	-13	4	0	-2	3	i	-5	-3
NC(CS(=O)O)C(=O)O (stereo unspecified)	-4	·	·	4	6	i	-5	-25
Cc1nnc(-c2cccc(Br)c2)c2cn(-c3cccc(Br)c3)nc12	23	-15	-17	7	-1	i	-21	-19
Cc1ccc(-n2nc3c(=O)n(CCCC(=O)NCCc4ccccc4C)nc(C)c3c2C)cc1	-7	2	-15	6	-2	i	·	10
Cc1cc(NC(=O)[C@H](C)NC(=O)c2ccco2)ccc1Br	-1	2	0	-1	-2	i	-15	7
COC(=O)c1cc(Br)c(=O)n(CCc2ccc(F)cc2)c1	-9	-10	3	3	7	i	·	·
COc1ccc(OCCSc2nc(N)cc(=O)[nH]2)cc1	-10	-2	-12	1	3	i	·	-171
COc1ccc2c(=O)cc(C(=O)O)oc2c1	8	-9	-7	-3	-1	i	·	6
O=C(c1ccc(N2CCCC2=O)cc1)N1CCCCCC1	6	-1	-16	7	0	·	-18	-7
CCOc1ccc(S(=O)(=O)NNC(=S)Nc2ccc(Br)cc2)cc1	8	-2	-2	1	3	i	-20	·
COc1ccc(NC(=O)C2Cc3ccccc3CN2C(=O)c2ccccc2)cn1 (stereo unspecified)	-1	?	?	-22	2	i	-13	·
Cc1ccc(S(=O)(=O)/N=C(/c2ccc(F)cc2)N2CCCCC2)cc1	-4	17	-5	3	8	i	-22	25
CCN(C(=O)COC(=O)c1ccc(F)c(S(=O)(=O)N2CCOCC2)c1)C1CCS(=O)(=O)C1 (stereo unspecified)	-13	6	2	1	3	i	-10	·
COc1ccc(/C=N/Nc2cc(C)nc3ccc(Br)cc23)cc1	107*	-2	4	-5	-16	i	5	-14
O=C(O)CCC(=O)NCc1ccc(C(=O)O)cc1	-3	-7	4	0	2	i	-2	-49
COc1ccc(CCNc2nc(-c3ccco3)cc(C(F)(F)F)n2)cc1OC	6	-3	-8	-13	-10	·	0	-7
OCC(CO)(CO)N=Cc1c(O)ccc2ccccc12	10	-2	-2	1	4	i	0	-3
CC(C)OCCCNc1nc(-c2ccccc2)nc2ccccc12	39	1	-1	3	-5	i	-6	0
CCNc1nc(NCC)nc(N(CC)C(N)=S)n1	-4	-1	-3	3	5	i	·	6
O=S(=O)(/N=C(/c1ccccc1)N1CCOCC1)c1ccc(Br)cc1	·	-13	-4	-4	1	i	5	6
Cc1ccc(NNC(=S)Nc2ccc(C(C)C)cc2)c(C)c1	67	-15	-3	0	1	i	-15	5
C=CCN1CN(S(=O)(=O)c2ccc(OC)cc2)c2nc3ccccc3nc21	-22	1	-3	-5	-9	i	-18	17
COc1ccccc1NC(=O)/C=C/C(=O)O	1	4	-3	-2	5	i	-9	-4
CC(NC(=O)CCCOc1ccc(Cl)cc1)c1ccccc1 (stereo unspecified)	3	1	-5	0	-7	i	-38	6
CN(C)c1ccc(C(c2nnnn2CCOC(=O)Nc2ccc(Cl)cc2)N2CCOCC2)cc1 (stereo unspecified)	·	-3	2	-1	-2	i	-12	·
Cc1ccc(NC(=O)/C=C/c2ccc([N+](=O)[O-])s2)cc1	10	2	9	-58	0	i	·	·
CN(c1ccccc1)S(=O)(=O)c1ccc(C(=O)NCc2ccccc2F)cc1	-5	·	·	3	1	·	-19	4
Cc1ccc2c(c1)[C@@H]1[C@H](CO2)[C@H](c2ccccc2)[C@]2(C)C(=O)N[C@H](C)C(=O)N12	-9	·	·	4	3	·	-24	-15
Cc1ccc(Sc2ncccc2COC(=O)Nc2c(C)cccc2C)cc1	27	5	-5	-1	-4	i	-12	·
ClCc1nnc(-c2cc3c(s2)CCCC3)o1	·	-12	1	-2	0	i	·	-11
Cc1nnc(SCC(=O)N(Cc2ccccc2)C(C)(C)C)[nH]c1=O	-8	4	0	1	-1	·	·	29
O=C(CSc1ncn[nH]1)NCc1ccc(Cl)cc1	-10	5	-2	-1	5	i	-1	-30
Cc1cc(C)n(-c2nc(C(=O)O)cs2)n1	-14	5	7	1	1	i	·	-25
C=CCOC(=O)C1C(=O)CC(C)(O)C(C(=O)OCC=C)C1c1ccc(N(C)C)cc1 (stereo unspecified)	-18	8	-2	2	0	i	-7	8
COc1ccccc1/C=C/C(=O)c1ccccc1	-2	7	4	-7	-7	i	·	-19
Cc1ccc(C(=O)NC(=S)Nc2ccc(NC(=O)c3cccc(Cl)c3)cc2)cc1	2	-7	1	7	3	i	-13	-6
COc1ccc2c3c(c(=O)oc2c1OCC(=O)O)CCCC3	-16	9	-2	2	7	i	·	-40
O=C(CSc1n[nH]c(=O)n1C1CC1)c1c[nH]c2ccccc12	-8	·	·	0	-1	·	-13	-2
CC(=O)N1CCN(c2nc(C)nc3sc4c(c23)CCC(C)C4)CC1 (stereo unspecified)	-6	2	0	-2	-5	i	-23	10
COCCCC1CCN(C(=O)C2CCC(=O)N(CCCc3ccccc3)C2)CC1 (stereo unspecified)	·	·	·	-4	-5	·	-32	?

Sorted by number of heavy atoms (smallest number first): six of the compounds above
SMILES	CSC inhib	PABP FP inh	eIF4H inh	MT1-MMP act inh	MT1-MMP act inh RFP	Rce1 inh	UUG fidelity	HIV Env fusion	others
Cc1cc(C)n(-c2nc(C(=O)O)cs2)n1	-14	5	7	1	1	i	·	-25
ClCc1nnc(-c2cc3c(s2)CCCC3)o1	·	-12	1	-2	0	i	·	-11
COc1ccccc1/C=C/C(=O)c1ccccc1	-2	7	4	-7	-7	i	·	-19
COc1ccc2c3c(c(=O)oc2c1OCC(=O)O)CCCC3	-16	9	-2	2	7	i	·	-40
Cc1nnc(SCC(=O)N(Cc2ccccc2)C(C)(C)C)[nH]c1=O	-8	4	0	1	-1	·	·	29
COCCCC1CCN(C(=O)C2CCC(=O)N(CCCc3ccccc3)C2)CC1 (stereo unspecified)	·	·	·	-4	-5	·	-32	?

(continued)
SMILES	CSC inhib	PABP FP inh	eIF4H inh	MT1-MMP act inh	MT1-MMP act inh RFP	Rce1 inh	UUG fidelity	HIV Env fusion	others
COc1cc(/C=C2/SC(=Nc3ccc(O)cc3)NC2=O)ccc1O	26	-8	21	-181	-15	i	·	i
CCOc1cc(/C=N/NC(=O)c2ccc(CN3CCOCC3)cc2)ccc1OC	-6	6	-6	0	-1	i	·	4
COC(=O)c1ccc(N2C(=O)C3CC=CC(C)C3C2=O)cc1 (stereo unspecified)	-1	77	0	-8	-2	i	-8	12	eIF4H inh retest=5;PABP FP inh retest=-1
Cn1c(=O)c2ncn(CC(=O)N/N=C/C=C/c3ccccc3)c2n(C)c1=O	-2	-16	5	-1	0	i	·	-49
Cc1ccc(N=CC2=C(O)CC(c3cccc(Cl)c3)CC2=O)cc1 (stereo unspecified)	22	-2	-11	4	6	i	·	-6
CC(C)(CNC(=O)CC1C(=O)NCCN1Cc1cccc(F)c1)N1CCOCC1 (stereo unspecified)	4	·	·	-3	2	i	0	10
Cc1noc(C)c1C(=O)Nc1ccc(C#N)cc1	-4	-5	-14	0	2	i	-13	-124
CCc1ccc([C@@H]2CC=C(C(=O)O)[C@H](c3ccc(C)cc3)N2S(=O)(=O)c2ccc(C)cc2)cc1	·	·	·	4	6	·	-12	-3
O=C(NCC1CCCO1)c1c(O)c2ccccc2[nH]c1=O (stereo unspecified)	1	2	-2	6	0	i	-3	·
O=C(c1nc2ccccn2c1CN1CCC(Cc2ccccc2)CC1)N1CCCC1	16	14	-5	-3	-2	i	-6	-1
CC(C)NC(=O)c1ccc2c(c1)N(CC(=O)N1CCCCC1)C(=O)C(C)(C)O2	3	4	18	-1	-2	i	0	24
CN1CCN(CCCCOc2ccc(Br)cc2)CC1	44	10	-3	5	3	i	-30	-11
COc1ccc(C(=O)NC(=S)NNC(=O)c2c(-c3ccccc3)noc2C)cc1OC	6	8	15	5	0	i	-31	17
CC(C)(C)OC(=O)NCCCC[C@H](NC(=O)c1nc[nH]c1C(=O)N[C@@H](CCCCNC(=O)OC(C)(C)C)C(=O)OC(C)(C)C)C(=O)OC(C)(C)C	7	13	4	-16	-21	i	-13	5
COc1ccc(/C=N/NC(=O)c2sccc2OCc2ccc(F)cc2)cc1OC	15	-4	-6	-4	-7	i	1	·
N#CC1=C(N)Oc2c(oc(CO)cc2=O)C1c1ccccc1[N+](=O)[O-] (stereo unspecified)	-1	29	24	-4	3	i	-9	-4
Cc1ccc(NC(=O)c2ccc3c(c2)N(CC(=O)NC(C)C)C(=O)C(C)(C)O3)cc1	-8	-1	-7	4	3	·	-20	-7
CCOC(=O)C1CCCN(C(=O)c2cc(OC)ccc2Br)CC1 (stereo unspecified)	·	·	·	3	5	·	-9	-1
COc1cc2c(cc1OC)C(c1ccc3c(c1)Cc1ccccc1-3)OC(=O)C2 (stereo unspecified)	·	·	·	8	-8	·	-12	2
CCN(CC(=O)NC(C)(C)C)C(=O)c1ccc2c(c1)S(=O)(=O)c1ccccc1C2=O	5	4	-2	-1	4	·	·	-3
Cc1cc(NC(=O)c2ccc([N+](=O)[O-])cc2)n(CCC#N)n1	-5	-5	-6	-1	2	i	-5	12
COCc1cc(C)nc(SC)c1C#N	-8	-7	5	-4	-2	i	·	7
CC(C)[C@@H](CO)NC(=O)c1ccc2c3n(nc2c1)-c1ccccc1CO3	58	7	3	0	3	i	-66	-53
Cc1ccc(S(=O)(=O)N2C[C@@H]3[C@H]4CC[C@H](C4)[C@@H]3[C@@H](C)[C@H]2c2ccco2)cc1	·	·	·	-8	-14	·	-15	23
COc1ccc(S(=O)(=O)N2CCOC23CCN(C(=O)c2ccccc2OC)CC3)cc1	-7	·	·	0	0	i	·	9
Cc1ccc(N2C(=O)c3ccc(C(=O)NCCN4CCOCC4)cc3C2=O)cc1	-13	-10	-3	-1	4	i	-13	·
Cc1[nH]c2ccccc2c1/C=N/Nc1ccccc1[N+](=O)[O-]	77*	-2	-9	11	0	i	·	-23
Cc1ccc(C(=O)Nc2nc3ccccc3s2)s1	8	-12	-5	-9	-9	i	-20	i
O=C(Nc1ccc(F)cc1)c1cccc(N2C(=O)C3C4C=CC(C4)C3C2=O)c1 (stereo unspecified)	-17	7	-7	2	-2	i	-18	0
COc1ccc(-c2ccccc2C2=CC(=O)CC(C)(C)C2=O)cc1	·	·	·	-2	-2	·	-7	23

From PubChem
